Compound activity from PubChem BioAssay.
Sa growth inh = S. aureus growth inhibition; S. aureus RN4220 growth, OD600, 20 h, 42 °C; stronger effect = lower value; relative growth, % (test concentration not listed); actives 0.53% (n = 170,000); AID 720641;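 active = growth at 42 °C up to 50% and 20 or more points under that at 30 °C, or under 10% at both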;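 note: 300 nL library stock went into each well; scaled to the means of positive and negative controls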
HCMV UL50-53 inh = inhibitors of HCMV UL50-UL53 nuclear egress complex interaction. HTRF UL50-UL53 interaction, normalized percent inhibition. inhibition, % (no concentration beside the values). actives 0.15% (n = 190,000). AID 1918969;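 active = both replicates at 50% or more, plus weaker picks with an unusually low signal ratio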;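 note: stock transfer was 100 nL into about 20 µL; 0% = negative control wells and 100% = wells with untagged competitor protein; inactives centre near -12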
GIV Gai3 FP = blocks GIV peptide binding to rat Galpha-i3. P08753. Galpha-i3/FITC-GIV peptide fluorescence polarization, 90 min; stronger effect = lower value; scaled: aluminum fluoride 0%, vehicle 100%. percent of control (FP), % (concentration not given with the values). actives 0.42% (n = 210,000). AID 1224905;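 active = replicate mean at 85% of control or lower, very high polarization wells dropped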;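 note: wells of about 15 µL received 100 nL stock; the first replicate is given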
Target sequence (P08753 whole entry, looked up): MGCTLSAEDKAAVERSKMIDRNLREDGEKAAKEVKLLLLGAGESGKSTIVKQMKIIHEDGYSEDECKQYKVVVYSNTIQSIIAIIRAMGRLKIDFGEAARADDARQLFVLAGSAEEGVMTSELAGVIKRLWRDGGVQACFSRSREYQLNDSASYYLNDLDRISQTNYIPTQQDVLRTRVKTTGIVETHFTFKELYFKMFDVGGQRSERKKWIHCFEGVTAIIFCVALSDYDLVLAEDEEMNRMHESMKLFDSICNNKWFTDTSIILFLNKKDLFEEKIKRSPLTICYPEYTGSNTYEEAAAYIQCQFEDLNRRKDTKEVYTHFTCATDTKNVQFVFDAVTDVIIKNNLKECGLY
Sa growth inh second temp = also measured in Sa growth inh; calls as there; relative growth, %; measured here: growth at 30 °C;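 optical density after 20 h as mean of two plates; 100% = untreated growth and lower means inhibition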
* hit, by the source's call; . = not tested or not shown.

compound,Sa growth inh,Sa growth inh second temp,HCMV UL50-53 inh,GIV Gai3 FP
COc1cccc(Oc2ccc(C(F)(F)F)cc2NC(=O)CSCC(=O)Nc2cc(C)on2)c1,70,54,-39,.
COc1ccc(N2C(=O)NC(NS(=O)(=O)c3ccc(NC(C)=O)cc3)(C(F)(F)F)C2=O)cc1 (stereo unspecified),78,95,11,106
COc1ccc(OCC(O)CNC(=O)c2ccccc2C(=O)O)cc1 (stereo unspecified),110,95,.,97
CC(CNC(=O)c1nnc(Cc2cccc(F)c2)o1)c1ccccc1 (stereo unspecified),105,98,-8,106
O=C(Nc1ccc(Cl)cc1)C1CCCN1S(=O)(=O)c1cccc2nsnc12 (stereo unspecified),.,.,-72,106
CC(=O)c1ccc(NC(=O)c2ccc(-c3ccc(Cl)cc3)o2)cc1,95,95,-15,106
CC(=O)N/C(=C\c1ccc(Cl)cc1)C(=O)O,102,79,2,102
COc1cc2[nH]c(=S)nc(NCc3cccnc3)c2cc1OC,92,86,-16,114
CC(C)(C)NC(=O)Nc1ccc(Cl)cc1,103,77,-15,105
COc1ccc(C(=O)N/C(=C\c2ccccc2)C(=O)NCc2ccco2)cc1,108,90,-8,95
CCN(CC)c1ccc(NC(=S)NC(C)C)cc1,81,82,-25,.
Cc1ccc(NC(=O)CN(C)S(=O)(=O)c2cnc[nH]2)cc1,102,89,-14,106
CC(=O)N1CCc2cc(S(=O)(=O)NCCC(=O)Nc3nc4ccc(C)cc4s3)ccc21,92,91,-6,107
Cc1nn(Cc2ccc(Cl)cc2)c(C)c1S(=O)(=O)N(C)C,101,95,-24,.
Nc1ccc(Cc2nc3ccccc3[nH]2)cc1,127,108,-4,104
O=C(CN1CCN(Cc2ccc(F)cc2Cl)S1(=O)=O)NCc1ccccc1Cl,.,.,-27,99
O=C(CSc1nc(-c2cccc(F)c2)[nH]c1-c1ccccc1)Nc1ccc2c(c1)OCCO2,104,66,6,103
CC(C(N)=O)N1C(=O)c2cccc3cccc1c23 (stereo unspecified),99,92,-101,108
Oc1ccccc1C(C#Cc1ccccc1)N1CCOCC1 (stereo unspecified),97,91,-24,101
CN(CC(=O)Nc1ccc(Cl)cc1)CC(=O)Nc1ccc(C(N)=O)cc1,94,87,-30,.
COc1cc(C2C(C#N)=C(N)Oc3n[nH]c(-c4ccc5ccccc5c4)c32)ccc1O (stereo unspecified),.,.,-77,103
CC(NC(=O)c1cc2c(s1)CS(=O)(=O)C2)c1ccccc1 (stereo unspecified),94,88,-6,98
CC(=O)N1Cc2ccccc2CC1C(=O)NCc1ccc2c(c1)OCO2 (stereo unspecified),67,87,-33,.
C=CCn1c(SC)nnc1-c1ccc2ncccc2c1,115,84,-24,98
O=C1OCCC1Sc1cccc2cccnc12 (stereo unspecified),81,59,-32,.
O=C(NCc1ccc(Br)cc1)c1ccc(Nc2ccnc(-c3ccc(F)cc3)n2)cc1,.,.,-15,103
O=C(O)/C(=C/c1ccc2c(c1)OCO2)NC(=O)c1ccccc1,103,87,-25,104
COc1ccc(-c2cc(C)no2)cc1S(=O)(=O)NCc1ccco1,100,99,.,111
CCOc1ccc(N2CC(C(=O)OC(C)C(=O)c3ccccc3)CC2=O)cc1 (stereo unspecified),84,78,-19,104
CC(C)n1cnc(S(=O)(=O)N2CCC(C(=O)Nc3ccc(S(N)(=O)=O)cc3)CC2)c1,.,.,3,105

Of the compounds above, these contain four or more nitrogen atoms:
compound,Sa growth inh,Sa growth inh second temp,HCMV UL50-53 inh,GIV Gai3 FP
COc1ccc(N2C(=O)NC(NS(=O)(=O)c3ccc(NC(C)=O)cc3)(C(F)(F)F)C2=O)cc1 (stereo unspecified),78,95,11,106
O=C(Nc1ccc(Cl)cc1)C1CCCN1S(=O)(=O)c1cccc2nsnc12 (stereo unspecified),.,.,-72,106
COc1cc2[nH]c(=S)nc(NCc3cccnc3)c2cc1OC,92,86,-16,114
Cc1ccc(NC(=O)CN(C)S(=O)(=O)c2cnc[nH]2)cc1,102,89,-14,106
CC(=O)N1CCc2cc(S(=O)(=O)NCCC(=O)Nc3nc4ccc(C)cc4s3)ccc21,92,91,-6,107
CN(CC(=O)Nc1ccc(Cl)cc1)CC(=O)Nc1ccc(C(N)=O)cc1,94,87,-30,.
COc1cc(C2C(C#N)=C(N)Oc3n[nH]c(-c4ccc5ccccc5c4)c32)ccc1O (stereo unspecified),.,.,-77,103
C=CCn1c(SC)nnc1-c1ccc2ncccc2c1,115,84,-24,98
O=C(NCc1ccc(Br)cc1)c1ccc(Nc2ccnc(-c3ccc(F)cc3)n2)cc1,.,.,-15,103
CC(C)n1cnc(S(=O)(=O)N2CCC(C(=O)Nc3ccc(S(N)(=O)=O)cc3)CC2)c1,.,.,3,105

Next part
compound,Sa growth inh,Sa growth inh second temp,HCMV UL50-53 inh,GIV Gai3 FP
O=C(/C=C/c1ccccc1)OCC1COc2ccccc2O1 (stereo unspecified),88,91,-3,.
COc1cc2c(cc1OC)C(C(=O)N1CCCCCC1)C1c3ccccc3CCN1C2=O (stereo unspecified),82,89,-9,94
O=C(c1cc2cccnc2n(Cc2ccccc2)c1=O)N1CCOCC1,.,.,8,110
COc1ccc2c(c1)n1nnnc1c1nnnn21,117,65,-7,110
O=C(O)/C=C/C(=O)NC1CCCCC1NC(=O)/C=C/C(=O)O (stereo unspecified),103,94,-12,100
CC(C)(C)c1cc(C(=O)NCc2ccc(C#N)cc2)n(Cc2ccccc2)n1,88,82,-16,108
COc1ccccc1-c1cc(=O)[nH]c2c1CCCC2,101,87,1,104
O=C(NC1CCCCCC1)c1ccc2c(c1)OCO2,96,76,.,97
N#Cc1nc(-c2ccccc2)cc(-c2ccccc2)n1,108,107,-6,96
CC(C)Cc1ccc(C(=O)C(C)N2CCN(c3ccc(C(F)(F)F)cn3)CC2)cc1 (stereo unspecified),94,92,-6,105
COc1ccc(-c2cc(C(=O)NCCc3ccc(OC)c(OC)c3)c3ccccc3n2)cc1,106,91,-79,107
CC12C=CC(=O)C1(C)C(=O)C=C2 (stereo unspecified),85,78,-38,99
O=c1oc2cc(O)c(O)cc2c2c1CCCC2,.,.,-68,105
O=C(CC1CCCC1)Nc1c(C(=O)Nc2ccccc2)oc2ccccc12,95,86,-40,107
O=S(=O)(Nc1ccc2ccccc2c1)c1cccs1,145,101,2,.
O=C(Nc1ccc(O)cc1)c1c(O)c2ccccc2[nH]c1=O,104,86,-12,.
CC(C)(C)SCC(=O)c1ccc2c(c1)CCC(=O)N2,103,88,-11,105
COc1ccc2[nH]c3c(c2c1)CCNC3C1CC=C(C)CC1 (stereo unspecified),98,79,.,105
CCOC(=O)c1ccc(N2C(=O)c3[nH]nc(-c4ccc(OCC)cc4)c3C2c2ccc(OC)cc2OC)cc1 (stereo unspecified),96,103,-3,108
O=C(NCc1nc2ccccc2n1Cc1ccccc1)c1ccco1,110,94,8,.
COc1ccc(CNC(=O)CCC(=O)N2CCSc3ccccc32)cc1,112,103,.,110
COc1cc(CCC(=O)NCc2ccc3c(c2)CCN3C(=O)c2cccc(C)c2)cc(OC)c1OC,107,99,.,107
Cc1nc2c(c(C)nn2C)c(C)c1CCC(=O)N1CCC(C)CC1,85,85,.,98
CCOC(=O)C1=C(C)N=c2s/c(=C\c3cc(Br)c(O)c(OC)c3)c(=O)n2C1c1ccc2c(c1)OCO2 (stereo unspecified),.,.,-23,-57*
CCOC(=O)CSc1ncnc2c1c(-c1ccccc1)cn2-c1ccc(OC)cc1,88,94,-15,110
Cc1cc(=O)n2nc(N3CCC(C(=O)NCc4ccccc4)CC3)sc2n1,96,83,-36,100
CSc1nc2ccccc2n1CN(C)Cc1ccccc1,118,88,.,99
CSCCC(=O)Nc1ccccc1I,106,81,-18,.
CCOc1cc(/C=N/NC(=O)c2ccc(CSc3nncn3C)cc2)ccc1OCC(=O)N1CCOCC1,89,89,-40,.
COC(=O)CSc1nc(C)nc2c1oc1ccccc12,94,66,-7,.

compound,Sa growth inh,Sa growth inh second temp,HCMV UL50-53 inh,GIV Gai3 FP
CCOC(=O)c1c(C)oc2c1c1c(c3ccccc32)OCN(C2CCCC2)C1,97,66,.,101
O=S(=O)(c1ccc(F)cc1)N1CCCN(c2nc3cc(Cl)ccc3n3cccc23)CC1,.,.,-21,101
Cc1sc2c(c1C)C(=O)NC(c1cccc(O)c1)N2 (stereo unspecified),96,78,.,101
Cc1cc(C)c(S(=O)(=O)NCCc2csc3nc(-c4ccc(Cl)cc4)nn23)c(C)c1,106,90,.,98
CCc1ccc(-c2cc(C)no2)cc1S(=O)(=O)N1CCN(c2ccccc2OC)CC1,95,88,-26,100
O=c1[nH]c(SCc2nc(-c3ccc(Cl)cc3)no2)nc2ccsc12,.,.,-24,108
COc1cc2cc(C(=O)c3ccccc3O)cnc2cc1OC,80,83,-57,.
CCN(c1cccc(C)c1)S(=O)(=O)c1cc2c3c(c1)CCN3C(=O)CC2,81,76,-35,93
N#C/C(=C\c1ccc(F)cc1)C(=O)NCC1CCCO1 (stereo unspecified),100,93,-26,104
Cc1ccc(Cc2c(C)nc3nc(CN4CCC(C)CC4)[nH]n3c2=O)cc1,.,.,-3,108
Cc1ccc(Cl)cc1-n1c(=O)cc(N2CCN(C(=O)c3ccco3)CC2)[nH]c1=O,90,94,6,101
COc1ccc(S(=O)(=O)N2CCN(C(=O)C(C)Oc3ccc(F)cc3)CC2)cc1 (stereo unspecified),90,77,-24,.
COc1ccc(-c2nc3cnccn3c2Nc2ccc3c(c2)OCO3)cc1OC,.,.,-28,102
FC(F)(F)c1ccccc1-c1ncc(-c2ccccc2)o1,111,80,-38,103
COc1ccc(CNC(=O)C2CCCN(C(=O)c3cnn(-c4ccc(F)cc4)c3-n3cccc3)C2)cc1 (stereo unspecified),124,89,.,100
CCc1ccc(N2CCN(C(=O)c3ccc4c(c3)OCO4)CC2)cc1,88,98,-3,100
COc1ccc(OC)c(-c2cc(C(=O)N3CCN(c4ncccn4)CC3)c3ccccc3n2)c1,84,75,-9,106
COc1ccc(CN(C(C)=O)c2ccccc2C(=O)O)cc1,91,98,-13,.
Cc1cc(Nc2cccc(C(F)(F)F)c2)nc2ccc(NC(=O)C3COc4ccccc4O3)cc12 (stereo unspecified),96,86,.,100
CC(C(=O)Nc1ccc(S(N)(=O)=O)cc1)N1C(=O)C2C3C=CC(C3)C2C1=O (stereo unspecified),91,88,-30,105
COc1ccc(C2NC(=O)N(C)C3=C2C(=O)N(c2cccc(C(=O)O)c2)C3)cc1 (stereo unspecified),106,99,-10,97
CCOc1ccccc1C(=O)NCc1nc2cccnc2n1Cc1ccc(C)cc1,99,97,.,120
N#Cc1ccc(OCC(=O)NCCCc2ccccc2)cc1,109,81,-31,.
Cc1nn(Cc2ccccc2Cl)c(Cl)c1C(=O)OC1CCOC1=O (stereo unspecified),92,90,-6,.
Cc1ccc(CN(C(=O)COc2ccc(Cl)cc2)c2ccccn2)o1,107,84,-24,105
Cc1ccn2cc(-c3ccc(F)cc3)nc2c1,123,74,-31,.
c1nc(N2CCOCC2)c2sccc2n1,109,82,-16,97
CCN1C(=O)N/C(=C/c2ccc(Sc3ccc(C)cc3)o2)C1=O,90,90,.,105
Cc1nn(-c2ccccc2)nc1CNC(=O)c1cc(F)cc2c1OCOC2,95,87,-25,101
CCOC(=O)c1cc2n(n1)CC(C)(C(=O)NC1CCC(C)CC1)N(c1ccc(NC(C)=O)cc1)C2=O (stereo unspecified),.,.,-3,101

compound,Sa growth inh,Sa growth inh second temp,HCMV UL50-53 inh,GIV Gai3 FP
CCOCCOC(=O)c1ccc(NC(=O)/C=C/c2ccc(OC)c(OC)c2)cc1,93,100,-16,107
CN1CCN(C(=O)c2ccc(C3SCC(=O)N3Cc3ccco3)cc2)CC1 (stereo unspecified),104,73,-6,98
COc1ccccc1N(C(=O)CN1C(=O)C2C3C=CC(C3)C2C1=O)C1=NCCCS1 (stereo unspecified),97,86,-17,.
CCCn1c(=O)sc2cc(NC(=O)c3ccc(OC)c(Br)c3)ccc21,108,83,-10,104
Cc1cccc(N2CCN(CCNC(=O)c3ccc4nc(N5CCOCC5)sc4c3)CC2)c1C,106,102,.,103
COc1ccc(S(=O)(=O)N2CCc3cc4ccccc4nc32)cc1Cl,.,.,-25,104
COc1ccc2c(c1)C1C=CCC1C(c1cc3c(cc1Br)OCO3)N2 (stereo unspecified),99,98,5,.
CCc1ccc2ncc(S(=O)(=O)c3ccccc3)c(N3CCOCC3)c2c1,100,95,-9,105
COc1cccc(-c2noc(-c3cc(C(C)C)[nH]n3)n2)c1OC,97,88,.,102
Cc1ccc(-c2cc3nc(-c4ccccc4)cc(N)n3n2)cc1,94,87,-3,.
C=C1c2cc(CC)ccc2NC(=O)N1c1ccccc1,93,80,.,101
COc1ccccc1C1CC(C(F)(F)F)n2ncc(C(=O)O)c2N1 (stereo unspecified),110,89,-1,107
COc1ccc(-c2cc(C(=O)Nc3c(Cl)cccc3Cl)no2)cc1OC,100,87,-14,105
